miR-21 FLuc = miR-21 reporter, rising signal; HeLa miR-21 FLuc reporter, luciferase, 48 h; Potency, µM (highest dose often 38.3 µM), for inactives: top-dose reporter change, positive = more light; 340,000 tested, under 10 active; AID 2288; active = well fitted rising curve with a large enough effect; inconclusive = small, poorly fitted or top-dose-only effect; inactive = no such curve, though single readings can be large or run the other way;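 further: % of control where 0% means no effect; miR-21 action dims this reporter so a rising signal means less miR-21 action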
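HeLa cells endogenously expressing miR-21, stably carrying CMV-driven firefly luciferase with a downstream miR-21 binding site, 2000 cells/well. Titrations up to approximately 40 uM, 48 hours; luciferase luminescence read.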
Rango-impB inh = inhibitors of Rango-importin beta complex formation | Q14974 | 340,000 compounds, 0.031% hits | Potency, µM (top dose mostly 92.2 µM), for the others: at the top dose inhibition of complex formation | Rango CFP/YFP FRET sensor + importin beta, 45 min | AID 540263; active = rising FRET ratio curve, often small or poorly fitted; inconclusive = mostly compound fluorescence or quenching in the first reads; inactive = flat curves in all reads;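 further: potency means the concentration at half of the fitted maximal effect; 0% = DMSO wells and 100% = buffer wells lacking importin beta; nearly all actives have a fitted effect of over 15% in size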
Target sequence (Q14974 whole entry, looked up): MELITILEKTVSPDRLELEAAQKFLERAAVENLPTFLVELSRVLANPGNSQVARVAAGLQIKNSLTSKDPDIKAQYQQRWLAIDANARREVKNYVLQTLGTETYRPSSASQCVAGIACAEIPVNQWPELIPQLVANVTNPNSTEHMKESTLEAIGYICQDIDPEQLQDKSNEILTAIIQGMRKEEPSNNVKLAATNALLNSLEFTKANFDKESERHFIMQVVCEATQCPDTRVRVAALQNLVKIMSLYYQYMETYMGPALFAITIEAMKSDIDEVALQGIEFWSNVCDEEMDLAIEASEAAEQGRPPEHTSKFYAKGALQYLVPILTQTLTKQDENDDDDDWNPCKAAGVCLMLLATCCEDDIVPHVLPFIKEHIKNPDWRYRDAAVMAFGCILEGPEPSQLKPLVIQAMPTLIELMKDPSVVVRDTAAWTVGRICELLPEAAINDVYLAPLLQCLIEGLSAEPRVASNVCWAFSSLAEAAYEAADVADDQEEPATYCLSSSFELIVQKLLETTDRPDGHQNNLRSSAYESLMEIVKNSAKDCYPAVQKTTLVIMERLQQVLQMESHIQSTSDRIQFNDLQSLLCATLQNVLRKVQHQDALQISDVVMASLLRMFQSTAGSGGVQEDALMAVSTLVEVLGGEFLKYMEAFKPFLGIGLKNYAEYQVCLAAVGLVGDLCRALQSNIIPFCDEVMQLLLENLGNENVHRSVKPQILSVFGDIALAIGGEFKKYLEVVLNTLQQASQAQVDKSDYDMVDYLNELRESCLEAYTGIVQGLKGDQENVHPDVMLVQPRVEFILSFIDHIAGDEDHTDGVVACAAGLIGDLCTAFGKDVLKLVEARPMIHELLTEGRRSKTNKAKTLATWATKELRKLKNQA
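Inhibition scored from the CFP 486 nm/YFP 530 nm FRET ratio 45 min after adding 0.125 microM importin beta to 50 nM Rango biosensor preincubated 5 min with compound (room temperature, PBS with DTT, Tween-20, BSA). No-importin wells as positive control.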
GLA inh pH 4.5 = alpha-galactosidase A (human) inhibition, pH 4.5; P06280; purified enzyme, 4-MU-alpha-Gal fluorescence, pH 4.5; activity change, negative = inhibition, % at 105 µM; 230,000 tested, under 10 active; AID 1467; inconclusive = small, poorly fitted or top-dose-only inhibition, or a rising curve; inactive = flat fitted curve, though single readings scatter; no compound was filed as active;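 further: 0% = full activity with enzyme and -100% = basal without enzyme; dose as in the result columns while the protocol names 77 µM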
Rango dissoc inh = inhibitors of RanGTP-induced Rango-importin beta complex dissociation; O95149+P62826; Biochemical FRET Rango-importin beta, RanGTP-induced dissociation; Potency, µM (series often up to 46.1 µM), inactives show at the highest dose activity change, negative = inhibition; 340,000 compounds, 0.071% hits; AID 540253; active means falling FRET ratio curve, often poorly fitted, with flat reads before Ran was added; inconclusive means other falling curves, or compound fluorescence or quenching; inactive means flat or rising ratio curve;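 further: potency means the concentration at half of the fitted maximal effect; % of control where 0% means no effect; nearly all actives have a fitted effect of over 45% in size; -100% = wells without RanGTP and RCC1; the record marks most hits as doubtful in a second field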
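Compounds sat 5 min at room temperature with 0.1 uM Rango biosensor plus 0.25 uM importin beta, then FRET pre-read. RanGTP-RCC1 (0.6 uM Ran, 2mM GTP, 0.2 uM RCC1) added for 45 min, and the CFP/YFP post-read measured blocked complex dissociation.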
Active calls of the source: *; ? = inconclusive; . = not tested or not shown; & = joins results of further samples. Some of the compounds tested, so the mix of outcomes need not match the whole.

miR-21 FLuc	Rango-impB inh	GLA inh pH 4.5	Rango dissoc inh	Compound
0%	2.8%	1	-5%	CC/C(Cc1ccccc1)=N\NC(=O)c1cc([N+](=O)[O-])cc([N+](=O)[O-])c1
.	?	.	2%	CC(C)(C)c1ccccc1NC(=O)c1cc(-c2ccncc2)nc2ccccc12
3%	.	-1	.	Cc1nc2c(c(=O)n1Cc1ccccc1Cl)c1nc3ccccc3nc1n2Cc1ccco1
-2%	6.0%	11	-14%	CCOc1cc(C(=O)Nc2c(C)ccc3nsnc23)cc(OCC)c1OCC
-2%	2.5%	8	0%	CC(=O)c1c(C)[nH]c(C(=O)OCC(=O)Nc2cccc(S(=O)(=O)N(C)C)c2)c1C
-3%	-0.9%	-6	12%	Fc1ccccc1N1CCN(Cc2nc(-c3ccc(Cl)cc3Cl)no2)CC1
0%	-0.4%	.	2%	CC1CN(C(=S)Nc2cccc(F)c2)CC(C)O1 (stereo not given)
.	-1.8%	.	4%	Oc1ccc(Cl)cc1CNCc1cccc2ccccc12
0%	-0.3%	-4	-6%	Cn1cccc1/C=N/NC(=O)CNc1cccc2ccccc12
0%	-0.2%	-5	-13%	OCCNc1cc(-n2nc(-c3ccccc3)cc2-c2ccccc2)ncn1

Some values from the list:
CC(C)(C)c1ccccc1NC(=O)c1cc(-c2ccncc2)nc2ccccc12 in Rango dissoc inh: 2%
OCCNc1cc(-n2nc(-c3ccccc3)cc2-c2ccccc2)ncn1 in Rango-impB inh: -0.2%
CC/C(Cc1ccccc1)=N\NC(=O)c1cc([N+](=O)[O-])cc([N+](=O)[O-])c1 in Rango-impB inh: 2.8%
CC1CN(C(=S)Nc2cccc(F)c2)CC(C)O1 (stereo not given) in Rango dissoc inh: 2%

The listing picks up, repeating the 3 entries before the break.
miR-21 FLuc	Rango-impB inh	GLA inh pH 4.5	Rango dissoc inh	Compound
.	-1.8%	.	4%	Oc1ccc(Cl)cc1CNCc1cccc2ccccc12
0%	-0.3%	-4	-6%	Cn1cccc1/C=N/NC(=O)CNc1cccc2ccccc12
0%	-0.2%	-5	-13%	OCCNc1cc(-n2nc(-c3ccccc3)cc2-c2ccccc2)ncn1
-1%	4.1%	.	2%	Cc1ccc(-c2nnc(Nc3ccc(CC(N)=O)cc3)c3ccccc23)cc1S(N)(=O)=O
16%	-1.2%	9	26%	CCn1ncc(C2=NOC(C(=O)Nc3c(C)nn(Cc4ccc(F)cc4)c3C)C2)c1C (stereo not given)
-9%	3.3%	-2	-7%	Cc1cccc(N2CCN(c3nnc(C(F)(F)F)s3)CC2)c1
0%	0.8%	-4	14%	CCNS(=O)(=O)c1ccc(S(=O)(=O)N(Cc2ccccn2)C2CCCCC2)cc1
.	7.4%	.	1%	C=CCn1c(C)cc(C(=O)COC(=O)c2n[nH]c(=O)c3ccccc23)c1C
0%	-4.6%	8	10%	CCOc1ccc(C(C)NC(=O)Nc2ccccc2C(=O)OC)cc1 (stereo not given)
-14%	-4.0%	3&-2	1%	Nc1cc(=O)[nH]c(=O)n1Cc1ccccc1
0%	1.0%	-1	4%	CCN(Cc1cc2ccccc2[nH]c1=O)C(=O)C1CCCCC1
-8%	-4.9%	-1	-16%	COCCNC(=O)c1ccccc1NC(=O)c1ccccc1N(C)S(=O)(=O)c1ccc(C)cc1
-2%	5.1%	-3	-3%	Cc1ccc(N2C(=O)[C@@H]3[C@H](C2=O)C2c4ccccc4C=NN2[C@@H]3C(=O)c2ccc(Cl)cc2)cc1 (stereo not given in full)

The listing continues.
miR-21 FLuc	Rango-impB inh	GLA inh pH 4.5	Rango dissoc inh	Compound
-7%	0.7%	.	0%	COP(=O)(OC)C(Nc1ccc(Cl)cc1)c1ccccc1 (stereo not given)
0%	-0.6%	.	10%	COc1ccc(/C=C(\NC(=O)c2ccc(OC)cc2)C(=O)Nc2ccccc2C(=O)O)cc1
-63%	.	-10	.	O=C1N/C(=C\c2nc3ccccc3s2)c2ccccc21
-9%	0.8%	7	-5%	CC(C)OCCCNS(=O)(=O)c1ccc2c(c1)oc(=O)n2C
-49%	0.3%	-16	-2%	CCOc1ccc(C2=NNC(c3cccs3)=Nc3ccc(OC)cc32)cc1
-58%	1.6%	-1	-4%	COc1ccc(N/C(C)=C/C(=O)c2ccccc2)cc1
-1%	4.6%	10	-12%	C=CCC1(N(C(C)=O)c2ccccc2)CCCCC1
1%	0.8%	2	5%	O=C(C1CCCN(S(=O)(=O)c2cccs2)C1)N1CCc2ccccc2C1 (stereo not given)
-40%	.	-4	.	COc1ccc(CNc2ccc3c(c2)CCC3)cc1OC
-3%	-1.2%	0	-12%	CC1=C(C(=O)N2CCOCC2)C(c2ccc(-c3ccccc3)cc2)NC(=S)N1 (stereo not given)

(cont.)
miR-21 FLuc	Rango-impB inh	GLA inh pH 4.5	Rango dissoc inh	Compound
.	-1.2%	.	4%	CC(=O)c1ccc(NC(=O)C(C)Sc2nnc3ccccn23)cc1 (stereo not given)
.	6.4%	.	0%	CC(C)=N/N=C1/NC(=O)C(c2ccc(Cl)cc2)S1 (stereo not given)
0%	6.3%	.	-5%	Cc1onc(-c2ccccc2Cl)c1C(=O)N(C)Cc1ccccc1
-4%	?	6	-6%	Cc1ccc(-c2nn(C)c(=O)c3ccccc23)cc1S(=O)(=O)NCCN1CCOCC1
6%	-0.6%	.	-10%	C/C(=N\NC(=O)c1nnn(-c2nonc2N)c1CN1CCCCC1)c1ccccc1O
-5%	-4.1%	-1	13%	Cc1ccc(C(C)C)c(OCC(=O)Nn2c(=O)[nH]c3ccccc3c2=O)c1
3%	-2.5%	.	?	CS(=O)(=O)N(CC(=O)N1CCN(Cc2ccccc2)CC1)c1ccccc1Br
-4%	1.1%	-2	0%	O=C(Cn1nc(C(F)(F)F)c2c1CCCC2)Nc1ccc2c(c1)OCO2
1%	-2.4%	.	1%	NS(=O)(=O)c1ccc(CCNC(=O)c2ccccc2Cc2ccccc2)cc1
-19%	?	-9	-11%	COc1ccc2c(c1)-c1nc(/N=C/c3c(O)ccc4ccccc34)sc1CC2

Next entries.
miR-21 FLuc	Rango-impB inh	GLA inh pH 4.5	Rango dissoc inh	Compound
.	-2.2%	.	2%	CCN(CC(=O)Nc1c(F)cccc1F)C(=O)CNC(=O)c1ccc(Br)o1
-6%	-0.5%	.	-3%	Cc1c(C(=O)CN2CCCC(C)(C)C2)c2ccccc2n1C
1%	2.7%	.	-21%	CN(c1ccccc1C(=O)N1CCN(c2ccccc2F)CC1)S(=O)(=O)c1ccccc1
1%	-1.1%	-4	17%	COc1ccc(CCC(=O)NCc2ccco2)cc1
-51%	0.4%	0	-14%	Cc1nc2cc(NC(=O)N3CCC(c4ccccc4)C3)ccc2n1C (stereo not given)
-2%	0.1%	-1	13%	N#Cc1ccc(-c2ccc(F)cc2)nc1Sc1ccccc1
-13%	-1.6%	-1	-16%	C/C(=N\OCC(=O)Nc1c(C)cc(C)cc1C)c1ccc2c(c1)OCCO2
0%	0.0%	.	2%	CCCc1cc(C(=O)N2CCCC(Nc3ccc(C)c(C)c3)C2)n(C)n1 (stereo not given)
-3%	?	4	15%	Cc1nc(SCC(=O)NC(C)(C#N)C2CC2)c2c(-c3cccs3)csc2n1 (stereo not given)
-2%	-0.6%	.	-8%	COc1cccc(CNC(=O)CN(C)S(=O)(=O)c2ccc(Br)s2)c1

Next compounds follow.
miR-21 FLuc	Rango-impB inh	GLA inh pH 4.5	Rango dissoc inh	Compound
-2%	4.7%	.	7%	COc1ccc(N2CCN(C(=O)CNC(=O)c3ccc(Br)o3)CC2)cc1
.	3.1%	.	-5%	Cc1ccc(C(=O)OCC(=O)NC2CC2)s1
12%	0.2%	.	3%	COc1ccc(CC(=O)N/N=C/c2cc(Br)cs2)cc1OC
.	0.1%	.	-11%	Cc1nn(-c2ccccc2)c(Cl)c1C(=O)N(C)CC(=O)Nc1cccc(F)c1
-1%	-0.6%	-4	2%	O=[N+]([O-])c1ccc(-c2nc(NCC3CCCO3)c3ccccc3n2)cc1 (stereo not given)
-1%	6.3%	5	-10%	COCCNc1ccnc2c(Cl)cccc12
1%	4.6%	4	-2%	Cc1nn(CCc2nn[nH]n2)c2nc(C(F)(F)F)cc(C(F)(F)F)c12
-7%	2.8%	-2	21%	CCc1ccc(CN(C)CC(=O)Nc2ccc3c(c2)CCC3)cc1
6%	0.3%	-25	9%	O=C(C1CCN(S(=O)(=O)c2cccc3nsnc23)CC1)N1CCc2ccccc21
5%	-1.2%	2	1%	CCOC(=O)c1sc(NC(=O)c2c(C)nn(Cc3ccccc3)c2C)cc1C

Later entries:
miR-21 FLuc	Rango-impB inh	GLA inh pH 4.5	Rango dissoc inh	Compound
-1%	1.1%	.	6%	COc1ccc(CNCC(=O)Nc2cc(OC)cc(OC)c2)cc1
-9%	-2.0%	6	9%	C/C(CC(=O)Nc1cccc(Cl)c1Cl)=N\NC(=O)c1ccccc1Br
4%	3.8%	.	2%	CCOC(=O)C1=C(CS(=O)(=O)c2ccc(C)cc2)NC(=O)NC1c1cc(OC)c(OC)c(OC)c1 (stereo not given)
2%	-0.3%	-1	-6%	O=C(COC(=O)c1cc(=O)[nH]c2ccccc12)NC1CCCC1
10%	3.3%	.	10%	Cc1ccc(S(=O)(=O)N2CCOC23CCN(C(=O)c2ccc(Cl)cc2Cl)CC3)cc1
-2%	-0.1%	-3	1%	O=C(COC(=O)C1(c2ccccc2F)CCCC1)N1CCOCC1
-13%	?	-4	?	CCCCN(C)Cc1c(O)ccc2c(-c3ccccc3)cc(=O)oc12
-11%	0.0%	.	8%	O=[N+]([O-])c1ccc2nonc2c1Nc1cccc(F)c1
-41%	4.2%	-11	16%	CCCCOC(=O)c1ccc(NC(=O)COC(=O)CSc2nc(C)cc(C)n2)cc1
-12%	1.2%	-5	-19%	COc1ccnc(N=CNOCc2ccc(C)cc2)c1C#N

Next results follow:
miR-21 FLuc	Rango-impB inh	GLA inh pH 4.5	Rango dissoc inh	Compound
5%	-2.4%	.	0%	CCn1cc(CN2CCCC(C(=O)Nc3cccc(-c4cc5ccccc5[nH]4)c3)C2)cn1 (stereo not given)
-4%	6.5%	.	28%	CCn1cnc2cc(NS(=O)(=O)c3ccc(OC)c(OC)c3)ccc21
-30%	-0.2%	-10	-2%	CCOC(=O)C(NC(=O)c1cccc(Cl)c1)(OCc1ccccc1)C(F)(F)F (stereo not given)
0%	1.1%	.	-7%	NC(=O)c1ccc(NC(=O)CN2CCN(c3ccccc3)CC2)cc1
-7%	2.6%	-4	-9%	COC(=O)C1=C(N)Oc2cc(C)n(CCc3ccccc3)c(=O)c2C1c1cccnc1 (stereo not given)
8%	-4.3%	1	-11%	COc1ccc2nc(C)cc(N3CCC(C(N)=O)CC3)c2c1
-3%	?	4	4%	CN1C(=O)CC(P(=O)(c2ccccc2)c2ccccc2)N(C)C1=O (stereo not given)
-56%	2.2%	-5	6%	O=C(Nc1ccc(Cl)c(C(F)(F)F)c1)C(=O)N1CCCCC1
21%	-5.1%	-8	8%	COc1ccc(OC)c(Nc2cc(-c3ccccc3)nc(N)n2)c1
-41%	-1.4%	2	8%	COc1cccc(-c2nnc(-c3ccco3)o2)c1

Next section
miR-21 FLuc	Rango-impB inh	GLA inh pH 4.5	Rango dissoc inh	Compound
-47%	-1.4%	.	6%	Cc1cc(C)cc(NC(=O)N2CCc3ccccc3C2)c1
-1%	2.8%	.	5%	CCc1cc(C(=O)Cc2ccccn2)c(O)cc1O
-19%	-0.6%	-1	0%	c1ccc(-c2nn3nnnc3c3ccccc23)cc1
-6%	5.7%	-7	?	CCOc1ccc(/C=C/C(=O)Nc2ccc(C(N)=O)cc2)cc1OC
-1%	5.2%	-22	0%	O=S(=O)(c1ccc(Oc2ccccc2)cc1)N1CCOCC1
-1%	-0.9%	-3	0%	COc1ccc(S(=O)(=O)Nc2cc(C)c(O)cc2C(C)C)cc1
-26%	?	-17	-13%	O=c1[nH]c(=O)n(Cc2ccco2)c2c1C(C(F)(F)F)(C(F)(F)F)N=C(Cc1ccccc1)N2
.	-3.5%	.	-7%	CCOC(=O)c1ccc(NC(=O)C2CC3CCC2C3)cc1 (stereo not given)

High-throughput results as filed in PubChem.
